Ecoli rRNA inh = selective bacterial rRNA inhibition in E. coli. AID 720706. hit rate 1.6% among 350,000. GFP signal change (wild-type ribosome), % (test concentration not listed). E. coli WT GFP vs humanized-ribosome RFP mutants, fluorescence, 24 h; active compounds read low; DMSO median 0, no signal -100;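 active means significant combined selectivity score with lowered wild-type GFP, culture density cut under 30%, mutant RFP and density less affected; inactive means any of these conditions unmet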; further: one replicate is shown; some compounds called inactive have numbers as strong as hits
UCH37 inh = blocks the human deubiquitinase UCH37; Q9Y5K5; purified proteasome/UCH37, Ub-AMC cleavage fluorescence; inhibition, % (concentration not given with the values); hit rate 0.33% among 330,000;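 active means mean of two replicates above 20%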;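 further: 0% = compound-free wells with enzyme and 100% = wells lacking proteasome; stock transfer was 100 nL into about 20 µL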
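Material: Human UCH37 enzyme supplied as purified proteasome complex | Schedule: 30 min preincubation with enzyme, 25 min cleavage at room temperature | Detection: AMC fluorescence 355/460 nm | Measure: % inhibition of Ub-AMC cleavage fluorescence | Controls: Wells without proteasome as full block, compound-free enzyme plus substrate as uninhibited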
Beta2AR agonist = agonists of human beta-2 adrenergic receptor inducing internalization. Am2.2-beta2AR cells, FAP receptor internalization, flow cytometry; reference of the scale not given here. response, % (concentration not given with the values). hit rate 0.43% among 340,000. AID 504454;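 active means response above a set limit, near 3 SD of response in nonfluorescent compounds, cut at about 42% in these data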;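 further: stock transfer was 100 nL into about 11 µL; a reference agonist was the positive control; negative values mostly stem from fluorescent compounds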
Target sequence (P07550 whole entry, looked up): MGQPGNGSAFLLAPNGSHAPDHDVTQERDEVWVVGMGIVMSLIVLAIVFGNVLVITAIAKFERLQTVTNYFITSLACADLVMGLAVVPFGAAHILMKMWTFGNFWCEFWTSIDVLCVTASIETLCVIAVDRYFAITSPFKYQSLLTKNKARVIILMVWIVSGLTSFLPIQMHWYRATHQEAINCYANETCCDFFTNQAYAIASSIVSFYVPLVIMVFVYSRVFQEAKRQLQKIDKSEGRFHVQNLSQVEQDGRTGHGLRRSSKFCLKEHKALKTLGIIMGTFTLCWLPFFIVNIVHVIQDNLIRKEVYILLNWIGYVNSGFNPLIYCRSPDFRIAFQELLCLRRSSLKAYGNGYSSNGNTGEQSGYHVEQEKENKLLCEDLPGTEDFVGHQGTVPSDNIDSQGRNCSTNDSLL
HNF4A DNA FP = change in binding of human HNF4 alpha to DNA; P41235; activity change, % at 10 µM; HNF4a-FITC DNA binding, fluorescence polarization, 1 h; hit rate 0.3% among 360,000; AID 1224865; in the data active means activity change above about 30%, passing the limit was not always enough;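 further: controls were the assay level and a saturating level of protein; the project sought stronger binding though the title names inhibitors; some compounds called inactive have numbers as strong as hits; positive values seem to mean higher polarization but the record does not say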
Target sequence (P41235 whole entry, looked up): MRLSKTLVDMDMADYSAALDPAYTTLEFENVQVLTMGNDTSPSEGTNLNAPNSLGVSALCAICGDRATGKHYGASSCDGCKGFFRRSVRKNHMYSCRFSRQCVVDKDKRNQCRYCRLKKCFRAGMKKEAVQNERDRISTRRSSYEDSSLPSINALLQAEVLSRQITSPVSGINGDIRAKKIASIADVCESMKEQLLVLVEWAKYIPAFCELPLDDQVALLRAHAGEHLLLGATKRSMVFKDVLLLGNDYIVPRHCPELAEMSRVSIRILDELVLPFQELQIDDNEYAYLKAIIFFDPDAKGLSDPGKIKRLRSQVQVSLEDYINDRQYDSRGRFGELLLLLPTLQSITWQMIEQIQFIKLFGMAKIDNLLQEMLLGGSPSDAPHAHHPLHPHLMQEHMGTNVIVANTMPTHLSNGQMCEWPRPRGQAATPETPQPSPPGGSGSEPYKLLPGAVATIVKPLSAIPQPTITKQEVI
E coli growth = blocks Escherichia coli growth; OD600 absorbance (concentration not given with the values); OD600, 23 h; active compounds read low; hit rate 0.21% among 330,000;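 active means OD600 absorbance below the run mean of sample wells minus 3.6 SD, in any replicate, cut at about 0.56 in these data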;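 further: stock transfer was 300 nL into about 60 µL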
ALR H2O2 inh = inhibitors of human sulfhydryl oxidase ALR; P55789; purified ALR, DTT oxidation, H2O2 HRP-luminol luminescence; inhibition, % (no concentration beside the values); hit rate 3.8% among 290,000; AID 485317;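 active means mean and each replicate at 75% or more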;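 further: stock transfer was 7.5 nL into about 7.5 µL; 0% = neutral wells and 100% = wells with inactivated enzyme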
FGF22 binding = shifts melting point of recombinant human FGF22; calls only at 9.99 µM; Q9HCT0; AID 651658; hit rate 1.5% among 340,000; recombinant FGF22 thermal shift, SYPRO orange fluorescence; percent of sucrose octasulfate shift, DMSO zero;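 active means melting point raised past a set limit in the mean and every replicate; three in four hits are not shown here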
Target sequence (Q9HCT0 whole entry, looked up): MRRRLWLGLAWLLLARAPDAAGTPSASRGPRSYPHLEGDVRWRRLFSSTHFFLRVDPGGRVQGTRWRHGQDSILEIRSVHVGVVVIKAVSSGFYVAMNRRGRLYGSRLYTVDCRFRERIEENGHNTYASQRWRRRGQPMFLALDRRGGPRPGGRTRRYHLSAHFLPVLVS
Ecoli rRNA inh OD600 = further read-out of Ecoli rRNA inh, marked with its call; OD600 change, %; measured here: OD600 growth;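 optical density of the mix in the first replicate; 0 = DMSO median and -100 = no signal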
Ecoli rRNA inh RFP = further read-out of Ecoli rRNA inh, marked with its call; RFP signal change, %; measured here: RFP humanized mutant strains;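 first replicate; 0 = DMSO median and -100 = no signal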
* hit, by the source's call; i = inactive; · = not tested or not shown; & = joins results of further samples. Some of the compounds tested, so the mix of outcomes need not match the whole.

SMILES | Ecoli rRNA inh | Ecoli rRNA inh OD600 | Ecoli rRNA inh RFP | UCH37 inh | Beta2AR agonist | HNF4A DNA FP | E coli growth | ALR H2O2 inh | FGF22 binding
O=c1ccc(/C=C/c2ccccc2)nn1Cc1ccc(F)cc1 | -42 | -55 | -8.4 | -44 | -7 | 2.9 | 0.64 | 3 | i
CCCCCCCCC(=O)N/N=C(\C)c1ccco1 | -6 | -7 | -2.3 | · | -6 | -0.8 | · | -5 | i
Cc1ccc(CNC(=O)CS(=O)CC(=O)O)cc1 (stereo not drawn) | · | · | · | -0.1 | 1 | 3.2 | 0.72 | -6 | ·
Cc1nc(-c2ccccc2)sc1C1(C)CC(c2ccccc2F)=NO1 (stereo not drawn) | -3 | -9 | -1.2 | 0.9 | -1 | 1.3 | 0.66 | 3 | i
CCN1CCN(c2nc(Nc3ccc(NC(C)=O)cc3)nc(Nc3ccc(NC(C)=O)cc3)n2)CC1 | -1 | 11 | -0.3 | 2.7 | -10 | -1.0 | 0.66 | -8 | i
O=C(c1ccc(F)cc1)C1CCN(C(=S)Nc2ccccc2)CC1 | · | · | · | 4.1 | -4 | 0.4 | 0.69 | -1 | ·
Cc1nn(Cc2ccccc2)c2sc(C(=O)N3CCN(Cc4ccc5c(c4)OCO5)CC3)cc12 | · | · | · | 2.3 | -1 | 1.3 | 0.75 | -7 | ·
Cc1cc(N2CCOCC2)nc(SCc2c(Cl)cccc2Cl)n1 | -24 | -15 | 14 | 7.6 | -10 | 2.0 | 0.73 | -9 | i
FC(F)(F)c1cccnc1-n1cncn1 | 13 | 15 | 0.4 | 2.9 | 2 | 5.1 | 0.68 | · | i
CS(=O)(=O)N(CC(=O)NCc1cccnc1)Cc1ccc(Cl)cc1 | · | · | · | 1.7 | 6 | 4.0 | 0.7 | -18 | ·
C=CCn1sc(N)c(C(=O)OCC)c1=S | · | · | · | -1.2 | -4 | -2.6 | 0.72 | 99* | ·
COc1ccccc1N1CCN(S(=O)(=O)c2ccc3c(c2)NC(=O)C(C)S3)CC1 (stereo not drawn) | -2 | -15 | 4.6 | -0.3 | 5 | -3.8 | 0.69 | -4 | i
COc1cc(CO)c(Br)cc1OCC(=O)Nc1ccccc1C | 3 | 10 | -1.2 | -3.7 | 0 | 4.8 | 0.72 | -8 | i
Cc1cc(NC(=O)C2CCCC2)nc2c1c(=O)oc1ccccc12 | · | · | · | 1.2 | -13 | 4.2 | 0.78 | · | ·
CCOc1ccc(C(=O)Nc2cc(-c3nc4ccccc4[nH]3)ccc2Cl)cc1[N+](=O)[O-] | 6 | 6 | -3.1 | 2.5 | -6 | 202 | 0.73 | -2 | i
COc1ccc(C(=O)N/C(=C/c2cccs2)c2nc3ccccc3[nH]2)cc1OC | -8 | 3 | 2.0 | -12 | -3 | 1.1 | 0.69 | -10 | i
COc1ccccc1NS(=O)(=O)c1cc(N)ccc1N1CCCCC1 | -33 | -43 | -5.8 | 1.4 | -1 | 6.6 | 0.65 | 16 | i
COc1ccc(-c2oc3ccccc3c2C(=O)Oc2ccccc2)cc1 | 16 | 16 | -4.6 | -129 | -16 | 3.9 | · | 4 | i
CC(Sc1nc(N(C)C)nc(N2CCOCC2)n1)C(=O)Nc1ccccc1 (stereo not drawn) | · | · | · | 3.5 | -10 | 0.3 | 0.72 | -5 | ·
Cc1ccc(S(=O)(=O)NNC(=O)c2ccc(F)cc2)cc1 | 13 | 14 | 1.5 | 1.7 | 0 | 6.6 | 0.65 | 30 | i

4 entries drawn at random from those above, as already listed:
SMILES | Ecoli rRNA inh | Ecoli rRNA inh OD600 | Ecoli rRNA inh RFP | UCH37 inh | Beta2AR agonist | HNF4A DNA FP | E coli growth | ALR H2O2 inh | FGF22 binding
CCOc1ccc(C(=O)Nc2cc(-c3nc4ccccc4[nH]3)ccc2Cl)cc1[N+](=O)[O-] | 6 | 6 | -3.1 | 2.5 | -6 | 202 | 0.73 | -2 | i
COc1ccccc1N1CCN(S(=O)(=O)c2ccc3c(c2)NC(=O)C(C)S3)CC1 (stereo not drawn) | -2 | -15 | 4.6 | -0.3 | 5 | -3.8 | 0.69 | -4 | i
Cc1nc(-c2ccccc2)sc1C1(C)CC(c2ccccc2F)=NO1 (stereo not drawn) | -3 | -9 | -1.2 | 0.9 | -1 | 1.3 | 0.66 | 3 | i
COc1ccccc1NS(=O)(=O)c1cc(N)ccc1N1CCCCC1 | -33 | -43 | -5.8 | 1.4 | -1 | 6.6 | 0.65 | 16 | i

(further entries)
SMILES | Ecoli rRNA inh | Ecoli rRNA inh OD600 | Ecoli rRNA inh RFP | UCH37 inh | Beta2AR agonist | HNF4A DNA FP | E coli growth | ALR H2O2 inh | FGF22 binding
COc1ccc(S(=O)(=O)N2CCOCC2)cc1NC(=O)COc1ccc(C)cc1 | -5 | -13 | 7.9 | 0.5 | 4 | -0.2 | 0.69 | -2 | i
CCn1c(=O)[nH]c2cc(C(=O)Nc3cc(C)cc(C)c3)ccc2c1=O | 16 | 12 | 1.3 | 4.6 | -1 | 0.7 | 0.72 | · | i
Cc1ccccc1CN1C[C@H]2CON(C)[C@H]2C[C@H]1c1cccc(Br)c1 | -4 | -31 | 12 | · | · | -6.6 | · | · | i
COC(=O)Cc1c(C)nc2nc[nH]n2c1=O | · | · | · | 1.7 | 7 | 2.2 | 0.72 | 2 | ·
O=C(NC1CCN(Cc2ccccc2)CC1)C1CCN(S(=O)(=O)c2cccc3nsnc23)CC1 | · | · | · | 6.7 | 3 | 0.9 | 0.71 | -2 | ·
CCOC(=O)[C@H]1CCC[C@@H](NS(=O)(=O)c2ccc(NC(C)=O)cc2)C1 | · | · | · | -0.3 | 1 | -3.7 | 0.68 | -30 | ·
Cc1ccc(S(=O)(=O)N2CCOCC2)cc1C(=O)Nc1ccc(C(N)=O)cc1 | 8 | 1 | -1.9 | -3.8 | -1 | 2.2 | 0.69 | · | i
COc1ccc(Cl)c(-c2cc(C(=O)NCc3ccc(C(F)(F)F)cc3)[nH]n2)c1 | -5 | -15 | 10.0 | · | · | -2.9 | · | · | i
O=C(Cn1cc([N+](=O)[O-])cn1)NCCc1nc2ccccc2[nH]1 | 5 | 3 | -0.9 | -0.1 | -4 | -3.4 | 0.67 | -18 | i
CCN(CC)C(=O)COc1ccc2c(-c3ccc(OC)cc3)cc(=O)oc2c1 | -22* | -17* | 2.1* | -6.9 | -4 | 1.9 | 0.65 | -15 | i
O=C(NCc1ccc(F)cc1)C1CCN(S(=O)(=O)c2ccc(Cl)cc2)CC1 | 12 | 16 | -0.7 | 6.6 | 4 | 0.2 | 0.65 | -3 | i
CC1(C)Cc2c(cnn2-c2cccc(F)c2)C(NC(=O)CCN2CCCC2=O)C1 (stereo not drawn) | 2 | -1 | -1.7 | -1.2 | -1 | -4.0 | 0.68 | -7 | i
Cc1c(NC(=O)c2cccc(NC(=O)Cc3c(F)cccc3Cl)c2)c(=O)n(-c2ccccc2)n1C | 2 | 14 | -0.7 | 1.4 | -2 | 1.3 | 0.65 | -2 | i
O=C(c1cc([N+](=O)[O-])ccc1Cl)N1CCN(c2ccc(F)cc2)CC1 | 1 | -7 | -2.1 | · | -2 | 0.5 | · | 8 | i
Cn1c(=O)c2cc(NC(=O)NCc3ccccc3)ccc2n1Cc1cccc(C(F)(F)F)c1 | -1 | -3 | 1.4 | · | · | -3.6 | · | · | i
CCC(C(=O)Nc1c[nH]c(=O)[nH]c1=O)c1ccccc1 (stereo not drawn) | · | · | · | 1.4 | 1 | 5.4 | 0.66 | -8 | ·
O=C(Nc1cccnc1Cl)c1cc(-c2ccc(O)cc2)on1 | 0 | 8 | -4.4 | 4.6 | -2 | -0.3 | 0.7 | -1 | i
CCN(CC)C(=O)c1sc(NC(=O)c2ccncc2)c(C(=O)OC)c1C | · | · | · | 4.9 | -1 | 0.6 | 0.66 | 0 | ·
O=C(C[C@H]1C[C@H]2c3cc(NC(=O)CC4CC4)ccc3O[C@H]2[C@H](CO)O1)NCc1ccccc1F | 6&1 | 16&-7 | 0.4&-0.6 | · | · | -3.0 | · | · | i
CN(C)S(=O)(=O)c1cccc(NC(=O)c2cccc(NS(=O)(=O)c3ccccc3)c2)c1 | -5 | -22 | 6.2 | · | 21 | -1.2 | · | -11 | i
CCc1ccc(CN2CCC(n3nccc3NC(=O)c3ccccc3OC)CC2)o1 | 10 | 17 | 0.1 | · | · | -3.9 | · | · | i
CC1CCN(C(=O)COc2ccccc2F)CC1 | · | · | · | -0.5 | 0 | 2.9 | 0.69 | -1 | ·
CN(Cc1ccccc1)c1ccc(C(CC(N)=O)NC(=O)c2ccccc2)cc1[N+](=O)[O-] (stereo not drawn) | -19 | -11 | -7.2 | -0.1 | 2 | 1.3 | 0.77 | · | i
C[C@H](CO)N1C[C@H](C)[C@H](CN(C)C(=O)c2ccc3ccn(C)c3c2)OCc2cnnn2CCCC1=O | 20&-5 | 4&-9 | 2.5&-0.2 | · | · | -2.8 | · | · | i
O=C(CC(=O)N/N=C\c1ccccc1[N+](=O)[O-])NCCc1ccccc1 | 16 | 20 | 2.4 | · | -5 | -1.6 | · | 0 | i
COc1cc(-c2nnc(-c3ccncc3)o2)ccc1OCc1ccccc1 | · | · | · | -55 | 10 | 3.6 | 0.77 | -10 | ·
O=C(Nc1cccc(Br)c1)c1ccc(CN2CCc3ccccc3C2)cc1 | 3 | -4 | -3.1 | 2.1 | 17 | 1.2 | 0.63 | -4 | i
O=C(c1ccc(Cn2c(=O)[nH]c3ccccc3c2=O)cc1)N1CCN(c2ccc(Cl)cc2)CC1 | · | · | · | 0.5 | -23 | 4.9 | 0.71 | -6 | ·
O=C(c1cccc2ccccc12)N1CCCCC1 | 7 | 9 | 1.0 | 2.8 | 8 | 2.5 | 0.7 | -16 | i
CC1CC(C)CN(S(=O)(=O)c2cc3c4c(c2)CCN4C(=O)CC3)C1 (stereo not drawn) | -3 | -5 | 1.0 | -2.1 | 0 | -4.0 | 0.67 | -4 | i
CCc1ccc(N2C(=O)C3ON(c4ccccc4)C(c4ccco4)C3C2=O)cc1 (stereo not drawn) | · | · | · | 2.4 | 5 | -1.6 | 0.8 | -4 | ·
O=C(/C=C/c1ccccc1O)c1ccccc1 | -19* | 0.8* | 2.4* | 4.2 | 15 | -0.1 | 0.69 | · | i
Cc1ccsc1C(=O)OCC(=O)N1CCN(C(=O)c2ccco2)CC1 | 4 | -6 | 2.2 | 3.3 | 10 | -1.8 | 0.74 | 0 | ·
COC(=O)C1OC2(OC1C(=O)OC)c1ccccc1-c1ccccc12 (stereo not drawn) | · | · | · | 5.9 | 8 | 2.0 | 0.79 | 6 | ·
CCN(C(=O)Cn1c(=O)n(Cc2ccccc2)c(=O)c2ccccc21)c1cccc(C)c1 | · | · | · | 0.0 | -5 | -4.0 | 0.69 | -25 | ·
COC(=O)N1C(=O)[C@](c2ccccc2)(C(C)C)N1C(=O)OC | 7 | -5 | -3.0 | 5.0 | 0 | 2.3 | 0.79 | · | i
O=S(=O)(NCc1ccccc1)c1ccc(S(=O)(=O)NCC2CCCO2)cc1 (stereo not drawn) | 1 | 1 | 0.9 | 1.3 | 11 | 6.3 | 0.68 | 4 | i
COc1ccc(-c2csc(NC(=O)c3ccccc3S(C)(=O)=O)n2)cc1 | -36* | -5.5* | 5.0* | 1.4 | -2 | -1.6 | 0.67 | · | i
O=C1c2[nH]nc(-c3ccccc3O)c2C(c2ccccc2)N1Cc1ccco1 (stereo not drawn) | · | · | · | 2.7 | 12 | -0.3 | 0.63 | 11 | ·
Oc1ccc(-n2cccc2/C=N/n2cnnc2)cc1 | 5 | -2 | 1.1 | · | 12 | 7.5 | · | 0 | i
Cc1cccc(NC(=O)c2ccc(S(=O)(=O)N3CCCCCC3)cc2)n1 | -2 | -1 | -2.0 | 5.5 | 18 | -0.2 | 0.65 | 0 | i

Bioassay records: PubChem BioAssay, several laboratories
